Screens (PubChem BioAssay)
Vaccinia stage – blocks a specific stage of Vaccinia orthopoxvirus infection | Vaccinia-infected cells, mCherry/Venus stage reporter fluorescence; hits give low values; some inactives read as strong as hits | activity change (mCherry), % (test concentration not listed) | 89,000 tested, 0.01% active | AID 1053133;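 active = mCherry past -33% and 40 or more points under the early reporter, replicates agreeing; inconclusive = past -33% without that gap or agreement; tested in A549 cells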;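 note: scaled between vehicle wells and reference inhibitor wells; 23 nL library stock went into each well; one replicate is shown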
Vaccinia stage Venus – recorded beside Vaccinia stage, whose call it bears; activity change (Venus), %; measured here: Venus reporter, other viral stage;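 negative = less Venus signal; first of two replicates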
Numbers without * were called inactive.

Results for CCNC(=O)Nc1ccc2c(c1)C(=O)N(C)[C@@H]1CC[C@@H](CC(=O)NCc3ccc(F)cc3)O[C@H]1CO2 ?
Vaccinia stage: -1.6; Vaccinia stage Venus: -4.9

What do the screens show for `CC(C)NC(=O)Nc1ccc2c(c1)C(=O)N([C@@H](C)CO)C[C@H](C)[C@H](CN(C)C(=O)CCCN(C)C)OCCCC[C@H](C)O2`?
Vaccinia stage: 8.7; Vaccinia stage Venus: -1.3

How did Cc1cccc(-c2ccc(C3[C@@H]4CN(C(=O)Nc5ccc(C(F)(F)F)cc5)C[C@H]3N4)cc2)c1 (stereo partly drawn) do in these assays?
Vaccinia stage: inconclusive

What do the screens show for `O=C(C[C@H]1C[C@H]2c3cc(NC(=O)Cc4ccncc4)ccc3O[C@H]2[C@@H](CO)O1)NCCN1CCCCC1`?
Vaccinia stage: 9.0; Vaccinia stage Venus: 13.4

How did C[C@H]1CN([C@@H](C)CO)S(=O)(=O)c2ccc(-c3ccc(F)cc3)cc2O[C@@H]1CN(C)S(C)(=O)=O do in these assays?
Vaccinia stage: inconclusive

How did COc1cccc(-c2cn(CC[C@H]3CC[C@H](NC(=O)CN(C)C)[C@H](CO)O3)nn2)c1 do in these assays?
Vaccinia stage: 12.0; Vaccinia stage Venus: 6.5

Results for C[C@@H]1CN([C@H](C)CO)C(=O)c2cc(NC(=O)Nc3ccccc3)ccc2O[C@@H](C)CCCCO[C@@H]1CN(C)S(=O)(=O)c1cccs1 ?
Vaccinia stage: 15.7; Vaccinia stage Venus: 15.6

How did Cc1ccc(S(=O)(=O)Nc2cccc3c2O[C@@H](CN(C)Cc2ccc4c(c2)OCO4)[C@H](C)CN([C@@H](C)CO)C3=O)cc1 do in these assays?
Vaccinia stage: 2.5; Vaccinia stage Venus: -1.1

Results for Cc1ccc(S(=O)(=O)N(C)C[C@@H]2OCCCC[C@@H](C)Oc3ccc(NC(=O)CCC(F)(F)F)cc3C(=O)N([C@@H](C)CO)C[C@H]2C)cc1 ?
Vaccinia stage: inconclusive

What do the screens show for `OC[C@H]1[C@@H](c2ccc(Br)cc2)[C@@H]2CN(Cc3ccccn3)CCCCN12`?
Vaccinia stage: -6.4; Vaccinia stage Venus: -7.4

Results for C[C@H](CO)N1C[C@H](C)[C@@H](CN(C)S(=O)(=O)c2ccc(C#N)cc2)OCc2cnnn2CCCC1=O ?
Vaccinia stage: 1.2; Vaccinia stage Venus: 1.9

How did Cc1ccc(S(=O)(=O)N(C)C[C@H]2Oc3ccc(NC(=O)NC4CCCCC4)cc3C(=O)N([C@H](C)CO)C[C@H]2C)cc1 do in these assays?
Vaccinia stage: -31.3; Vaccinia stage Venus: -36.4

Results for COc1ccc(S(=O)(=O)Nc2ccc3c(c2)C(=O)N([C@@H](C)CO)C[C@H](C)[C@H](CN(C)C(=O)c2ccncc2)OCCCC[C@@H](C)O3)cc1 ?
Vaccinia stage: 7.0; Vaccinia stage Venus: -1.8

Results for Cc1noc(C)c1NC(=O)N(C)C[C@H]1Oc2ccc(NC(=O)NC3CCCCC3)cc2CC(=O)N([C@@H](C)CO)C[C@H]1C ?
Vaccinia stage: 19.9; Vaccinia stage Venus: 7.0

How did CO[C@@H]1CN(C)C(=O)c2ccc(NC(C)=O)cc2OC[C@H](C)N(Cc2ccccn2)C[C@@H]1C do in these assays?
Vaccinia stage: 17.6; Vaccinia stage Venus: 6.2

How did C[C@@H](NC(=O)[C@@H]1N[C@@H]2c3ccc(-c4ccncc4)c(=O)n3C[C@@H]2[C@H]1CO)c1ccccc1 do in these assays?
Vaccinia stage: -0.8; Vaccinia stage Venus: 0.2

What do the screens show for `O=C(Cc1ccncc1)NCC[C@H]1CC[C@@H](NC(=O)C2CCCCC2)[C@@H](CO)O1`?
Vaccinia stage: 1.7; Vaccinia stage Venus: 1.9

Results for C[C@@H]1CN([C@@H](C)CO)C(=O)Cc2cc(NS(=O)(=O)c3cccs3)ccc2O[C@@H]1CN(C)CC1CCCCC1 ?
Vaccinia stage: 2.3; Vaccinia stage Venus: -9.3

How did CCC(=O)N(C)C[C@H]1Oc2cc(Br)ccc2S(=O)(=O)N([C@H](C)CO)C[C@@H]1C do in these assays?
Vaccinia stage: 0.2; Vaccinia stage Venus: -3.7

Results for Cc1noc(C)c1S(=O)(=O)Nc1ccc2c(c1)CC(=O)N([C@@H](C)CO)C[C@@H](C)[C@H](CN(C)S(=O)(=O)c1ccc(F)cc1)O2 ?
Vaccinia stage: 5.4; Vaccinia stage Venus: 3.6

How did N#C[C@H]1[C@H](c2ccccc2-c2ccccc2F)[C@H](CO)N1C(=O)C1CC1 do in these assays?
Vaccinia stage: -16.0; Vaccinia stage Venus: 6.5

How did C[C@H]1CN([C@@H](C)CO)C(=O)CCCn2nncc2CO[C@H]1CN(C)C(=O)Nc1ccc2c(c1)OCO2 do in these assays?
Vaccinia stage: 19.7; Vaccinia stage Venus: 15.2

How did C[C@@H]1CN([C@H](C)CO)C(=O)CCCn2cc(nn2)CO[C@H]1CN(C)CC1CCCCC1 do in these assays?
Vaccinia stage: 7.4; Vaccinia stage Venus: -1.6

Results for C[C@H](NC(=O)C[C@H]1C[C@@H]2c3cc(NS(C)(=O)=O)ccc3O[C@@H]2[C@H](CO)O1)c1ccccc1 ?
Vaccinia stage: 4.5; Vaccinia stage Venus: 4.1

Results for COc1ccc(C#Cc2cnc3c(c2)C(=O)N([C@H](C)CO)C[C@@H](C)[C@@H](CN(C)C)O3)cc1 ?
Vaccinia stage: -11.9; Vaccinia stage Venus: -9.5

What do the screens show for `C[C@H](CO)N1C[C@H](C)[C@H](CN(C)S(=O)(=O)c2ccc(F)cc2)OCCCC[C@H](C)Oc2ccc(NS(C)(=O)=O)cc2C1=O`?
Vaccinia stage: 12.0; Vaccinia stage Venus: 10.0

How did C[C@@H]1CCCCO[C@@H](CN(C)Cc2ccc3c(c2)OCO3)[C@@H](C)CN([C@H](C)CO)C(=O)c2cc(NC(=O)CCCCCC(=O)Nc3ccccc3N)ccc2O1 do in these assays?
Vaccinia stage: 10.9; Vaccinia stage Venus: 4.9

Results for O=C(C[C@H]1CC[C@@H](NC(=O)Nc2ccc3c(c2)OCO3)[C@@H](CO)O1)NCc1ccc(Cl)cc1 ?
Vaccinia stage: 4.9; Vaccinia stage Venus: 5.3

What do the screens show for `CCNC(=O)[C@H]1[C@H](CO)[C@H]2Cn3c(cccc3=O)[C@@H]1N2C(=O)Nc1cc(F)ccc1F`?
Vaccinia stage: 3.1; Vaccinia stage Venus: -2.8

Results for CN(C)C(=O)c1cccc(-c2ccc([C@H]3[C@@H](CO)N4C(=O)CN(C(=O)C5CCCCC5)C[C@@H]34)cc2)c1 ?
Vaccinia stage: 2.5; Vaccinia stage Venus: 1.4

Quoted at random: 7 records from the list
How did C[C@H]1CN([C@@H](C)CO)C(=O)CCCn2nncc2CO[C@H]1CN(C)C(=O)Nc1ccc2c(c1)OCO2 do in these assays?
Vaccinia stage: 19.7; Vaccinia stage Venus: 15.2

How did C[C@@H]1CCCCO[C@@H](CN(C)Cc2ccc3c(c2)OCO3)[C@@H](C)CN([C@H](C)CO)C(=O)c2cc(NC(=O)CCCCCC(=O)Nc3ccccc3N)ccc2O1 do in these assays?
Vaccinia stage: 10.9; Vaccinia stage Venus: 4.9

Results for C[C@H](NC(=O)C[C@H]1C[C@@H]2c3cc(NS(C)(=O)=O)ccc3O[C@@H]2[C@H](CO)O1)c1ccccc1 ?
Vaccinia stage: 4.5; Vaccinia stage Venus: 4.1

What do the screens show for `CCNC(=O)[C@H]1[C@H](CO)[C@H]2Cn3c(cccc3=O)[C@@H]1N2C(=O)Nc1cc(F)ccc1F`?
Vaccinia stage: 3.1; Vaccinia stage Venus: -2.8

Results for COc1ccc(C#Cc2cnc3c(c2)C(=O)N([C@H](C)CO)C[C@@H](C)[C@@H](CN(C)C)O3)cc1 ?
Vaccinia stage: -11.9; Vaccinia stage Venus: -9.5

What do the screens show for `C[C@H](CO)N1C[C@H](C)[C@H](CN(C)S(=O)(=O)c2ccc(F)cc2)OCCCC[C@H](C)Oc2ccc(NS(C)(=O)=O)cc2C1=O`?
Vaccinia stage: 12.0; Vaccinia stage Venus: 10.0

How did C[C@@H]1CN([C@H](C)CO)C(=O)CCCn2cc(nn2)CO[C@H]1CN(C)CC1CCCCC1 do in these assays?
Vaccinia stage: 7.4; Vaccinia stage Venus: -1.6

Carrying on:
How did C[C@H]1CN([C@@H](C)CO)C(=O)Cc2cc(NS(C)(=O)=O)ccc2O[C@@H]1CN(C)C(=O)Nc1ccc2c(c1)OCO2 do in these assays?
Vaccinia stage: -24.0; Vaccinia stage Venus: -3.5

What do the screens show for `C[C@@H]1CCCCO[C@@H](CN(C)Cc2ccc(C(F)(F)F)cc2)[C@@H](C)CN([C@@H](C)CO)C(=O)c2cc(NC(=O)c3ccccc3)ccc2O1`?
Vaccinia stage: -10.9; Vaccinia stage Venus: 2.5

What do the screens show for `COCC(=O)N1C[C@@H](C)[C@@H](OC)CN(C)C(=O)c2cc(NC(=O)c3cnccn3)ccc2OC[C@@H]1C`?
Vaccinia stage: 7.1; Vaccinia stage Venus: -2.1

Results for CCNC(=O)C[C@@H]1C=C[C@H](NC(=O)NC2CCCCC2)[C@H](CO)O1 ?
Vaccinia stage: 2.3; Vaccinia stage Venus: 3.1

How did C[C@H](CO)N1C[C@H](C)[C@@H](CN(C)S(=O)(=O)c2ccc(F)cc2)Oc2cc(C3=CCCCC3)ccc2S1(=O)=O do in these assays?
Vaccinia stage: -27.2; Vaccinia stage Venus: -29.0

What do the screens show for `C[C@H]1CN([C@@H](C)CO)C(=O)Cc2cc(NC(=O)NC3CCCCC3)ccc2O[C@@H]1CN(C)S(=O)(=O)c1ccccc1`?
Vaccinia stage: 2.7; Vaccinia stage Venus: 10.2

What do the screens show for `COc1ccc(-c2ccc([C@H]3[C@@H](CO)N4C(=O)CN(C(=O)NC(C)C)C[C@@H]34)cc2)cc1`?
Vaccinia stage: 2.2; Vaccinia stage Venus: 4.5

How did Cc1ccccc1S(=O)(=O)N1CCCCN2[C@@H](CO)[C@@H](c3ccc(-c4cccnc4)cc3)[C@@H]2C1 do in these assays?
Vaccinia stage: inconclusive

How did CN(C)Cc1cn(CC[C@@H]2CC[C@H](NS(=O)(=O)c3ccccc3)[C@@H](CO)O2)nn1 do in these assays?
Vaccinia stage: 2.3; Vaccinia stage Venus: 5.6

Results for CC(C)NC(=O)N1[C@@H](CO)[C@@H](c2ccccc2)C12CN(Cc1cc(F)cc(F)c1)C2 ?
Vaccinia stage: -14.2; Vaccinia stage Venus: -6.3

Results for CC=Cc1ccc2n(c1=O)C[C@@H]1[C@@H](CO)[C@H](C(=O)NCc3ccc4c(c3)OCO4)[C@H]2N1C(=O)CC (mixture of isomers) ?
Vaccinia stage: 3.7; Vaccinia stage Venus: 8.8

How did O=C(c1ccccc1)N1C[C@@H]2[C@H](c3ccccc31)[C@H](CO)N2C(=O)c1ccccn1 do in these assays?
Vaccinia stage: 1.4; Vaccinia stage Venus: 8.5

How did C[C@@H]1CN([C@H](C)CO)C(=O)c2cc(NC(=O)Nc3ccc(F)cc3)ccc2O[C@@H]1CN(C)Cc1ccc2c(c1)OCO2 do in these assays?
Vaccinia stage: -24.0; Vaccinia stage Venus: -19.5

How did CC(=O)n1cc([C@@H]2C=C(C(=O)Nc3ccccc3)O[C@H](OCc3ccc(CO)cc3)C2)c2ccccc21 do in these assays?
Vaccinia stage: 2.9; Vaccinia stage Venus: 8.4

Results for CN(C)CC(=O)N1[C@H](CO)[C@H](c2ccccc2)C12CN(C(=O)c1ccccc1)C2 ?
Vaccinia stage: 11.3; Vaccinia stage Venus: 7.4

How did COc1ccccc1C#Cc1ccc2c(c1)O[C@H](CN(C)C(C)=O)[C@@H](C)CN([C@@H](C)CO)S2(=O)=O do in these assays?
Vaccinia stage: inconclusive

Results for COCC(=O)N1C[C@@H]2[C@H](c3ccccc31)[C@@H](CO)N2C(=O)C1CC1 ?
Vaccinia stage: 1.1; Vaccinia stage Venus: -1.8

What do the screens show for `CO[C@H]1CN(C)C(=O)c2cc(NC(=O)NC3CCCCC3)ccc2OC[C@H](C)N(C(C)=O)C[C@H]1C`?
Vaccinia stage: -3.6; Vaccinia stage Venus: -0.8

Results for O=C(C1CC1)N1CC(=O)N2[C@H](CO)[C@@H](c3ccc(C#CC4CCCC4)cc3)[C@@H]2C1 ?
Vaccinia stage: -24.5; Vaccinia stage Venus: -19.4

Results for C[C@H](CO)N1C[C@H](C)[C@@H](CN(C)Cc2ccc3c(c2)OCO3)Oc2c(NS(=O)(=O)c3ccccc3)cccc2C1=O ?
Vaccinia stage: -0.5; Vaccinia stage Venus: -3.5

How did C/C=C/c1ccc([C@@H]2[C@@H](CO)N3CCCCN(C(=O)Nc4ccc(OC)cc4)C[C@H]23)cc1 do in these assays?
Vaccinia stage: -30.8; Vaccinia stage Venus: -28.4

What do the screens show for `CCCC#Cc1ccc([C@@H]2[C@H](CO)N3C(=O)CN(C(=O)Nc4ccc(F)cc4)C[C@@H]23)cc1`?
Vaccinia stage: -4.5; Vaccinia stage Venus: -5.3

How did C[C@@H]1CN([C@@H](C)CO)C(=O)c2cccc(NC(=O)Nc3ccc(F)cc3)c2O[C@H]1CN(C)C(=O)Nc1ccccc1 do in these assays?
Vaccinia stage: -4.6; Vaccinia stage Venus: -3.9

How did CO[C@H]1CN(C)C(=O)c2ccc(NC(C)=O)cc2OC[C@H](C)N(CC2CCCCC2)C[C@H]1C do in these assays?
Vaccinia stage: -14.5; Vaccinia stage Venus: -12.0

How did CCCNC(=O)N1[C@H](CO)[C@@H]2c3ccccc3N(C(=O)NC(C)C)C[C@@H]21 do in these assays?
Vaccinia stage: 9.3; Vaccinia stage Venus: 5.3

Results for C[C@H]1CN([C@@H](C)CO)C(=O)Cc2cc(NC(=O)Nc3cccc4ccccc34)ccc2O[C@H]1CN(C)C(=O)Nc1ccc(F)cc1 ?
Vaccinia stage: 10.1; Vaccinia stage Venus: 14.4

What do the screens show for `COCC(=O)N(C)C[C@@H]1Oc2ncc(C#Cc3ccccc3)cc2C(=O)N([C@H](C)CO)C[C@@H]1C`?
Vaccinia stage: 13.2; Vaccinia stage Venus: 9.2

This is a subset (hit frequency here may not be typical).
